# Source: PubChem (several laboratories)
# Ecoli growth: inhibitors of Escherichia coli growth; OD600 absorbance (concentration not given with the values); OD600, 23 h; active compounds read low; 330,000 tested, 0.21% active; AID 1053175;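 active = OD600 absorbance below the run mean of sample wells minus 3.6 SD, in any replicate, cut at about 0.56 in these data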;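 note: stock transfer was 300 nL into about 60 µL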
# Vif A3G: inhibitors of Vif binding to APOBEC3G peptide, primary screen, biochemical, TR-FRET, GST-Vif 1-94, biotin-A3G peptide, dose response retest (AID 1117319); one-dose inhibition, %; IC50 in µM for titrated hits; TR-FRET GST-Vif / biotin-A3G peptide binding; higher % means a stronger effect; test concentration not given here; strong numbers were not always called active; 260,000 tested, 0.57% active;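 active = above the screen mean plus three standard deviations and confirmed in dose response; inconclusive = results disagree or hit not tested in dose response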;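 note: Vif residues 1-94 fused to GST binding biotinylated APOBEC3G peptide 110-148; 0% = full assay without inhibitor and 100% = GST in place of GST-Vif; retest series ran down from 100 µM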
# A1 inh: inhibitors of the anti-apoptotic protein A1, read as caspase activation; MEF A1-2A-BIM cells, Caspase-Glo 3/7 luminescence, 3 h; percent of clofoctol response, vehicle zero; caspase activation, % (test concentration not listed); 330,000 tested, 0.066% active;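 active = over half of replicate activation scores above 10%, or exactly half above 10 with the replicate mean above 10; inconclusive = replicate mean below 10 yet half the replicates above 10; inactive = over half of replicates below 10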;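 note: wells of about 30 µL received 50 nL stock; many hits fall short of the cut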
# LANA-H2A inh: blocks KSHV LANA binding to histone H2A/H2B | Q9QR71 | AID 2629 | inhibition, % (concentration not given with the values) | 320,000 tested, 0.6% active | cell-free LANA-H2A/H2B peptide, fluorescence polarization; in the data active = inhibition mostly above about 10%, no sharp cut-off; inactive = mostly below about 6.7%;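 note: stock transfer was 7.5 nL into about 10 µL; 0% = median of vehicle wells and 100% = median of positive control wells; one replicate is shown; the record names a cut of 25% in any replicate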
# Target sequence (Q9QR71 whole entry, looked up): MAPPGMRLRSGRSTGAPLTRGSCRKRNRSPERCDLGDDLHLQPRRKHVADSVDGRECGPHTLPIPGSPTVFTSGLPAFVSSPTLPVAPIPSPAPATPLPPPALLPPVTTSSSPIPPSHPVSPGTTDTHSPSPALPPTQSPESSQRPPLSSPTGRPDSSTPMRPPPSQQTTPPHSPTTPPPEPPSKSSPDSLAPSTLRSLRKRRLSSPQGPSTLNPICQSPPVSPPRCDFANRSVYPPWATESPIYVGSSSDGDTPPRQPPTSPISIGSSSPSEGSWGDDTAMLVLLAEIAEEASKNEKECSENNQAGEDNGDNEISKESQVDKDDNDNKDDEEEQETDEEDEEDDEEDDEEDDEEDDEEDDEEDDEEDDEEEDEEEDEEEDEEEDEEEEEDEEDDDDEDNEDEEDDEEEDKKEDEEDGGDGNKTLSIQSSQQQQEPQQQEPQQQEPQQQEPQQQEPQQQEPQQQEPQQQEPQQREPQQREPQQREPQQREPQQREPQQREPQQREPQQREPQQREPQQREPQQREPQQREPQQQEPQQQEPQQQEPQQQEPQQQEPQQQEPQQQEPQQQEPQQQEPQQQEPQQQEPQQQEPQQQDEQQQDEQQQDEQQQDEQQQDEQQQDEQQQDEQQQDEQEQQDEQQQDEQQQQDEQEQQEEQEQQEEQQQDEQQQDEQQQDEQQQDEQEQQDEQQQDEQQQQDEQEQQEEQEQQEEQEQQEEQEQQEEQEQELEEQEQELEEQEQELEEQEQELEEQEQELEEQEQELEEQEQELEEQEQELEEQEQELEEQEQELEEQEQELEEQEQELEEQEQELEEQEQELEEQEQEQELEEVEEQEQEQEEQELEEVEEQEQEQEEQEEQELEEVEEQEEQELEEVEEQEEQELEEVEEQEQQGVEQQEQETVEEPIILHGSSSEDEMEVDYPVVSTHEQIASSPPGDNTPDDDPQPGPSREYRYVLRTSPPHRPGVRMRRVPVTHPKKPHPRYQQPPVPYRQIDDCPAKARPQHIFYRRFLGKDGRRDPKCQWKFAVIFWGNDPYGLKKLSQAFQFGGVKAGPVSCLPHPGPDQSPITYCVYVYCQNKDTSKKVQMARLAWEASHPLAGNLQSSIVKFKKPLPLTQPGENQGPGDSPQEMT
# HNF4A DNA FP: change in binding of human HNF4 alpha to DNA | activity change, % at 10 µM | HNF4a-FITC DNA binding, fluorescence polarization, 1 h | AID 1224865 | P41235 | 360,000 tested, 0.3% active; in the data active = activity change above about 30%, passing the limit was not always enough;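 note: controls were the assay level and a saturating level of protein; the project sought stronger binding though the title names inhibitors; some compounds called inactive have numbers as strong as hits; positive values seem to mean higher polarization but the record does not say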
# Beta2AR agonist: activates human beta-2 adrenergic receptor causing internalization; P07550; Am2.2-beta2AR cells, FAP receptor internalization, flow cytometry; reference of the scale not given here; response, % (concentration not given with the values); 340,000 tested, 0.43% active;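 active = response above a set limit, near 3 SD of response in nonfluorescent compounds, cut at about 42% in these data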;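 note: stock transfer was 100 nL into about 11 µL; a reference agonist was the positive control; negative values mostly stem from fluorescent compounds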
# UCH37 DUB inh: blocks the human deubiquitinase UCH37 | 330,000 tested, 0.33% active | purified proteasome/UCH37, Ub-AMC cleavage fluorescence | Q9Y5K5 | inhibition, % (test concentration not listed);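 active = mean of two replicates above 20%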;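 note: 0% = compound-free wells with enzyme and 100% = wells lacking proteasome; stock transfer was 100 nL into about 20 µL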
#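 Material: human UCH37 enzyme supplied as purified proteasome complex / Amount: 0.15 nM proteasome as dispensed / Buffer or medium: pH 7.4 Tris-HCl (50 mM) with ovalbumin, ATP-MgCl2, DTT / Times: preincubation 30 min, reaction 25 min, room temperature / Technique: AMC fluorescence from Ub-AMC cleavage, excitation 355 nm, emission 460 nm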
# * = called active by the depositor; i = inactive; ? = inconclusive; . = not tested or not shown; & = joins results of further samples.
SMILES,Ecoli growth,Vif A3G,A1 inh,LANA-H2A inh,HNF4A DNA FP,Beta2AR agonist,UCH37 DUB inh
CCOC(=O)c1c(C)nn(-c2ncccc2NC(=O)NC(C)C)c1C,0.67,.,1.2,1.0,-1.2,0,5.2
O=C(C(Cl)Cl)N1CCN(Cc2ccccc2)CC1,0.65,.,-0.5,-3.4,1.2,-2,2.1
Cc1ccc(NS(=O)(=O)c2cccc(C(=O)O)c2)cc1S(=O)(=O)N1CCOCC1,0.74,.,1.0,-2.8,-1.5,0,2.7
CCOC(=O)C(CCCCCOc1ccccc1[N+](=O)[O-])C(=O)OCC,0.7,?,1.2,4.0,1.6,7,3.4
Cc1ccc2nc(-c3ccccc3)cc(C(=O)NCCCn3ccnc3)c2c1,0.68,2%,-0.3,3.7,2.1,-16,-54
NS(=O)(=O)c1ccc(NC(=S)N2CCN(c3ccc(Cl)c(Cl)c3)CC2)cc1,.,-1%,1.0,.,2.3,-1,.
CC(C)Cc1cc(C(=O)Nc2cc(Br)ccc2O)no1,0.74,-2%,-2.1,-1.3,-0.8,36,3.7
O=C(CCn1c(=O)oc2ccccc21)NCCN1CCc2ccccc2C1,0.67,12%,0.1,8.4,-2.8,5,1.1
Cc1cc(C(=O)OCc2nnc(-c3ccccc3)o2)c(C)n1-c1ccccc1,0.77,2%,0.0,4.7,4.6,4,1.9
COc1cccc(CC(=O)Nc2ccc(-c3csc(C)n3)cc2)c1,0.64,0%,-0.9,2.3,8.5,4,2.7
CC(=O)c1ccc(N2C(=NC(=O)C3CCCO3)SC3CS(=O)(=O)CC32)cc1 (stereo not drawn),0.67,62%,-0.2,-3.5,5.3,0,4.8
CC(Sc1ccc(Cl)cc1)C(=O)NNC(=O)c1ccccc1O (stereo not drawn),0.65,.,-1.2,-1.4,-4.1,-2,-1.8
CC(C)Cn1c(=O)c2c(c3ccccc31)OC(C)C(=O)N2 (stereo not drawn),0.72,-7%,.,.,0.8,3,1.4
Cc1nc(C)c(C(=O)OCC(=O)N(C)c2ccccc2)s1,0.64,1%,.,.,3.3,0,1.8
O=C(CN1CCC(O)(c2ccc3c(c2)OCO3)CC1)NC1CCCCC1,0.69,-12%,-0.5,2.1,0.1,-4,1.8
O=C(Nc1cccc2ncccc12)c1ccc(Br)c([N+](=O)[O-])c1,0.72,5%,-0.5,-0.4,1.0,7,5.3
Cc1ccc(NC(=O)CCC(=O)c2cc(C)sc2C)nc1,0.69,14%,0.3,.,1.5,6,3.9
O=C1CC(NNC(=O)c2ccc(Br)cc2)C(=O)N1 (stereo not drawn),0.66,-3%,-0.1,-8.7,-4.3,-2,5.5
Cc1cccc(C)c1NC(=O)C1CC2CCC1C2 (stereo not drawn),0.68,.,0.5,1.7,-0.9,-4,-0.3
O=C(CSc1nnnn1-c1ccc2c(c1)OCCO2)N1CCN(C(=O)c2ccco2)CC1,0.67,.,0.1,0.2,1.9,-14,5.4
CSc1ccccc1NC(=O)CN(C)C(=O)C1CC(=O)N(C(C)c2ccccc2)C1 (stereo not drawn),0.72,.,-1.1,0.3,2.7,10,4.1
COCCCNC(=O)CN(c1cc(OC)ccc1OC)S(=O)(=O)c1ccccc1,0.72,0%,-0.2,19*,2.2,-2,1.1
O=C(CN1C(=O)NC2(CCCCCC2)C1=O)Nc1cccc(F)c1,0.63,13%,3.6,4.2,-4.9,0,2.2
NC(=O)c1ccc2c(c1)S(=O)(=O)c1ccccc1C2=O,0.65,26%,-0.2,1.0,1.2,-15,3.7
Cc1cccc(NC(=O)CSc2cc(C(=O)c3nccn3C)c3ccccc3n2)c1,0.74,.,1.2,0.2,1.4,-5,5.2
c1cc2c3c(cccc3c1)C(N1CCOCC1)=N2,.,29%,-0.4,11,-6.8,-11,.
COc1cccc(Cn2nnc(C(=O)NCc3ccccc3Cl)c2N)c1,0.7,5%,-1.0,5.6,-1.0,2,5.1
CC1(C)C2([N+](=O)[O-])CN3CC1([N+](=O)[O-])CN(C2)C3c1ccc(O)c(O)c1 (stereo not drawn),0.68,.,0.4,1.0,0.9,-2,0.4
O=C(Nc1ccc2c(c1)OCO2)N1CCN(Cc2ccco2)CC1,0.66,14%,-1.1,-1.2,-0.3,11,0.6
CC(NC(=O)c1ccccc1F)c1nnc(SCC(=O)Nc2nnc(C3CC3)s2)n1C (stereo not drawn),0.7,9%,0.8,.,0.8,0,4.7
CCN1C(=O)[C@H]2[C@H]3CN=C(SCc4ccc(C#N)cc4)N3[C@@](CC)(C(=O)OC)[C@H]2C1=O,0.71,7%,.,.,0.5,-4,0.9
C(CCc1nn[nH]n1)CCC1CCCCC1,0.67,-9%,.,.,-1.8,-6,-0.3
CCCCCCC(=O)N/N=C/c1ccc(Br)cc1,.,4%,0.8,1.0,-1.3,16,.
Cc1ccc2[nH]c(CNC(=O)C3CCCCC3)cc2c1,0.68,2%,-0.3,-3.3,1.8,1,-2.2
O=C(COc1ccc(Br)cc1)N1CCCCCC1,0.66,.,-0.6,2.3,-0.3,-12,3.5
N#CCCCN1C(=O)C(O)(CC(=O)c2ccc3c(c2)OCCO3)c2ccccc21 (stereo not drawn),0.76,-3%,-0.9,-0.4,0.6,1,-1.3
O=C(N/N=C/c1ccc[nH]1)c1ccccc1OCc1ccccc1Cl,.,.,0.0,2.5,5.9,6,.
O=C(Nc1nnc(-c2cc(Cl)ccc2Cl)o1)C1=COCCO1,0.68,-1%,0.0,.,-9.5,-7,2.2
O=C1C(Cl)=C(NS(=O)(=O)c2ccc([N+](=O)[O-])cc2)C(=O)c2ccccc21,0.66,?,0.0,-0.2,2.4,-3,24*
O=C(CC1Sc2ccccc2NC1=O)NCc1ccccc1 (stereo not drawn),0.75,11%,-0.3,-0.2,0.2,-6,0.5

# Only LANA-H2A inh, for two of the compounds above:
SMILES | LANA-H2A inh
O=C(COc1ccc(Br)cc1)N1CCCCCC1 | 2.3
N#CCCCN1C(=O)C(O)(CC(=O)c2ccc3c(c2)OCCO3)c2ccccc21 (stereo not drawn) | -0.4

# Remaining list, next part
SMILES,Ecoli growth,Vif A3G,A1 inh,LANA-H2A inh,HNF4A DNA FP,Beta2AR agonist,UCH37 DUB inh
O=C(NNC(=O)c1cc2ccccc2cc1O)c1cccs1,0.63,.,-12,0.1,3.3,-1,0.3
COc1ccccc1N1C(=N)S/C(=C\c2ccc(-c3ccccc3C(=O)O)o2)C1=O,0.71,18%,0.6,0.2,15,7,8.0
N#Cc1ccc(-c2ccc(F)cc2)nc1Oc1ccc(Cl)c(Cl)c1,0.66,3%,-0.1,-3.7,0.4,1,-11
Cc1ccc(SCc2nn(C)c(Cl)c2C=O)cc1,0.67,.,-2.2,6.4,4.8,2,0.8
CCN(C(=O)c1ccc(NC(=O)c2ccco2)cc1)c1ccccc1,0.73,-8%,-9.0,-3.0,0.0,-12,-1.9
CC1(C)C(=O)Nc2ccccc2N1C(=O)COC(=O)CSc1ccc(F)cc1,0.67,4%,0.1,-0.9,2.9,4,3.7
CCOC(=O)c1c(NC(=O)C[n+]2ccc(Cc3ccccc3)cc2)sc(C)c1C,0.63,3%,-0.4,-5.7,-1.9,1,5.5
Cc1cccc(C2Nc3ccccc3C(=O)N2c2ccccc2)n1 (stereo not drawn),0.71,-3%,0.2,0.8,22,-6,i
CCOC(=O)C1NN=C(C(=O)c2ccccc2)C1c1ccccc1 (stereo not drawn),0.71,.,-0.5,.,-0.6,-11,0.1
NS(=O)(=O)c1ccc(NC(=O)NC2CC(=O)N(c3ccc4c(c3)OCCO4)C2)cc1 (stereo not drawn),0.65,3%,1.0,-1.5,3.4,-1,-0.5
COc1ccc(N2CCN(S(=O)(=O)CCNC(=O)COc3cccc(OC)c3)CC2)cc1,0.73,.,0.8,-7.0,2.5,2,3.2
Cc1c(NC(=O)CSc2nnc(-c3ccco3)n2-c2ccccc2)c(=O)n(-c2ccccc2)n1C,0.72,2%&5%,0.0,-0.8,0.5,-2,-4.2
O=C(CSc1nc(-c2ccccc2Cl)ns1)NCc1ccc2c(c1)OCO2,0.68,.,-0.8,-1.9,-1.6,5,4.6
CCOC(=O)C(C)Oc1ccc2c(C)cc(=O)oc2c1C(C)=O (stereo not drawn),0.7,0%,1.5,-2.0,-1.2,6,-4.8
Cc1c(/C=N/Nc2ccc(C(=O)O)cc2)c2ccccc2n1C,.,5%,0.0,-0.3,0.2,15,.
Brc1ccc(C2=Nn3c(Cn4nnc5ccccc54)nnc3SC2)cc1,0.6,-3%,0.7,-2.8,0.8,-8,2.3
Cc1cccc(OCC(=O)N(Cc2ccc(F)cc2)C2CCS(=O)(=O)C2)c1C (stereo not drawn),0.65,-4%,-0.9,-9.0,2.5,9,-2.4
CCCCCC/C=N/Nc1nnc(Cc2ccc(OC)c(OC)c2)c(=O)[nH]1,.,.,1.0,2.3,0.0,7,.
CCC(=O)N1CCc2cc(S(=O)(=O)CCC(=O)NCc3ccc4c(c3)OCO4)ccc21,0.72,-2%,-0.5,0.9,-3.5,-14,1.8
CCc1nc2ccccc2c(=O)n1/N=C/c1ccc(OC)cc1,.,.,1.3,1.0,-1.1,-13,.

# 4 entries drawn at random from those above:
SMILES,Ecoli growth,Vif A3G,A1 inh,LANA-H2A inh,HNF4A DNA FP,Beta2AR agonist,UCH37 DUB inh
Cc1cccc(NC(=O)CSc2cc(C(=O)c3nccn3C)c3ccccc3n2)c1,0.74,.,1.2,0.2,1.4,-5,5.2
NS(=O)(=O)c1ccc(NC(=S)N2CCN(c3ccc(Cl)c(Cl)c3)CC2)cc1,.,-1%,1.0,.,2.3,-1,.
O=C(CC1Sc2ccccc2NC1=O)NCc1ccccc1 (stereo not drawn),0.75,11%,-0.3,-0.2,0.2,-6,0.5
Cc1ccc(NS(=O)(=O)c2cccc(C(=O)O)c2)cc1S(=O)(=O)N1CCOCC1,0.74,.,1.0,-2.8,-1.5,0,2.7

# The list continues:
SMILES,Ecoli growth,Vif A3G,A1 inh,LANA-H2A inh,HNF4A DNA FP,Beta2AR agonist,UCH37 DUB inh
C=C(C)c1cccc(C(C)(C)NC(=O)N2CCN(c3ccccc3OC)CC2)c1,0.67,10%,-0.3,1.2,-1.4,-6,4.1
CC(C)Cn1c(N)c(C(=O)COC(=O)c2cccc(F)c2)c(=O)n(C)c1=O,0.64,6%,.,.,4.1,-7,0.0
Cc1ccc2cccc(Oc3ncnc4scc(-c5ccccc5)c34)c2n1,0.74,-2%,0.9,-1.1,3.2,-9,5.0
COc1ccc(C(=O)OCC(=O)NC(=O)NC2CCCC2)cc1OC,0.73,.,-1.4,3.4,0.1,0,2.4
COc1ccc(-c2cc(=O)oc3c(C)c(OCC(=O)NCC4CCC(C(=O)O)CC4)ccc23)cc1 (stereo not drawn),0.69,.,0.7,-3.9,4.5,-5,-10
COc1ccc(S(=O)(=O)N(C)C)cc1NC(=O)CSc1ncccn1,0.63,.,0.6,-0.9,3.5,4,0.2
CC(C)C(=O)NS(=O)(=O)c1ccc(NS(C)(=O)=O)cc1,0.7,-1%,-0.4,0.4,-6.4,5,3.0
CC(C)(C)c1ccc(NC(=O)C2=CN3CCS(=O)(=O)N=C3C=C2)cc1,0.68,-5%,-0.1,-6.4,-2.0,-5,1.2
COc1ccc(NC(=O)c2ccc3c(c2)OCO3)cc1S(=O)(=O)N1CCOCC1,0.7,.,0.1,-4.1,5.5,0,5.8
CC(CN1CCN(C)CC1)OC(=O)c1ccccc1 (stereo not drawn),0.71,4%,0.1,-4.9,0.7,-10,4.5
NC(=O)N1CC(O)CC1C(=O)Nc1ccc(Cl)c(Cl)c1 (stereo not drawn),0.73,?,0.4,0.4,1.2,-2,-1.9
COc1ccc(C(=O)/C=C/c2cccc(OCc3ccccc3)c2)cc1CSCC(=O)O,0.71,2%,0.2,-3.1,-4.8,11,9.7
